Source: PubChem BioAssay
PABP polyA inh – PABP-poly(A) binding inhibition; AID 2014; inhibition, % at 35 µM; P11940; PABP-poly(A) RNA binding, fluorescence polarization; 290,000 tested, 1% active;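 active = 50% or more with normal probe brightness, or confirmed in later tests; inconclusive = above 50% with abnormal brightness, or retests that disagree; inactive = below 50% or failed in later tests; about a fifth of its hits are not listed in these tables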;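 note: calls also rest on retests at 20 µM and on dose response follow-up; controls were probe without protein and protein plus probe with vehicle; some compounds called inactive have numbers as strong as hits; many hits fall short of the cut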
UUG fidelity – modulators of start codon recognition fidelity in yeast; activity score, % at 18.7 µM; AID 602363; 350,000 tested, 0.13% active; S. cerevisiae UUG-firefly luciferase reporter, luminescence/redox ratio;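 active = replicate mean at a twofold rise or more, about +100% in these data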;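 note: firefly luciferase made from a UUG start codon reports start codon fidelity; reporter light over untreated wells divided by growth signal over untreated wells; some hits fall short of that in this replicate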
Rce1 inh – yeast Ras-converting enzyme inhibition; Q03530; yeast membranes, quenched prenylated peptide cleavage fluorescence; calls only; 290,000 tested, 0.27% active;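 active = fall in fluorescence gain of 50% or more versus controls, with final raw signal at or below 3038400; inconclusive = same 50% fall but final raw signal above 3038400; inactive = fall in fluorescence gain under 50%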;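 note: plate controls were neutral control wells for no effect and wells lacking membranes for full effect; tested at 10 µM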
Target sequence (Q03530 whole entry, looked up): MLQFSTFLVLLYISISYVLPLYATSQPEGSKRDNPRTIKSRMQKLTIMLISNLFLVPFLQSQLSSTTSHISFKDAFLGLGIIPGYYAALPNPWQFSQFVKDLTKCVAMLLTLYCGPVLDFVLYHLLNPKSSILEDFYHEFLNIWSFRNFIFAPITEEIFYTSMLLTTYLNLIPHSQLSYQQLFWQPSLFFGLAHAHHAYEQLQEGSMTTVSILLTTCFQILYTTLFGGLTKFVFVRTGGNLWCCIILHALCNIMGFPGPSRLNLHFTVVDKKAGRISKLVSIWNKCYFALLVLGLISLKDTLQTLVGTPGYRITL
CSC inhib – cancer stem cell inhibition. cancer stem cell-like cells viability, luminescence. inhibition, % at 7.5 µM. 300,000 tested, 1.1% active;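 active = mean at 75% or more and at least half the replicates too; inconclusive = mean and replicates disagree; tested in HMLE shEcad cells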;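 note: 0% = median of negative and 100% = median of positive control wells; the first replicate is given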
MT1-MMP act inh – blocks activation of human MT1-MMP; GFP/RFP ratio change, % at 20 µM; 360,000 tested, 0.061% active; HT1080 RFP-PRO-GFP cells, GFP/RFP ratio fluorescence, overnight; percent of plate control window, DMSO zero;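 active = GFP/RFP ratio change of at least 30% with cell ATP level not reduced by more than half and red fluorescence within 50% of control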; note: strong numbers were not always called active
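system = RFP-PRO-GFP reporter HT1080 cells | dosing = 20 µM single dose, 1% DMSO | timing = overnight cell settling, then overnight compound exposure, 37 °C, 5% CO2 | read-out basis = GFP/RFP fluorescence ratio | controls = DMSO and RFP-L50D-GFP cell wells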
eIF4H inh – inhibitors of RNA binding by human eIF4H. 290,000 tested, 0.94% active. Q15056. eIF4H fluorescence polarization binding assay. inhibition, % at 35 µM;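 active = 50% or more with normal probe brightness, or confirmed in later tests; inconclusive = above 50% with abnormal brightness, or retests that disagree; inactive = below 50% or failed in later tests; about a fifth of its hits are not listed in these tables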;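 note: calls also rest on retests at 20 µM and on dose response follow-up; 0% = protein and probe with vehicle and 100% = probe without protein; strong numbers were not always called active; many hits fall short of the cut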
Env fusion inh – blocks HIV Env-driven cell-cell fusion; HeLa-JRFL Env/CEM21 cell fusion, luciferase; inhibition, % at 12.3 µM; 360,000 tested, 1.1% active; AID 651610;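 active = mean replicate inhibition score of at least 50 and every replicate individually at or above 50; inconclusive = only one of the two criteria met; inactive = mean below 50 and not all replicates reaching 50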;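 note: 0% = plate neutral controls and 100% = maraviroc near 300 nM; one replicate is shown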
eIF4H inh retest – recorded beside eIF4H inh, whose call it bears; inhibition, %; compound at 20 µM; confirmation average;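 mean of two retest wells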
PABP polyA inh retest – second read-out of PABP polyA inh, no call of its own (marks repeat the call); inhibition, %; compound at 20 µM; confirmation repeats;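 mean of two retest wells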
MT1-MMP act inh RFP – second read-out of MT1-MMP act inh, no call of its own (marks repeat the call); RFP signal change, %; measured here: RFP expression control read;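 0 = vehicle wells; hits needed this value within 50% of zero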
* = called active by the depositor; i = inactive; ? = inconclusive; · = no result given.

SMILES	PABP polyA inh	UUG fidelity	Rce1 inh	CSC inhib	MT1-MMP act inh	MT1-MMP act inh RFP	eIF4H inh	Env fusion inh	others
CCCCc1ccc(NC(=S)NCCN2CCOCC2)cc1	5	·	i	-2	3	1	-6	7
S=C1SCCCN1Cc1ccc(Cl)cc1	·	-22	·	·	4	-1	·	-1
COCCn1c(SCC(=O)N2CCOCC2)nc2c(c1=O)SCC2	-3	-17	i	-4	1	4	-1	-2
O=C(NCCN1CCN(c2ccccc2F)CC1)C1CC(=O)N(C2CCCC2)C1 (stereo not given)	-20	4	·	-14	0	-3	-14	·
Cc1c(C(=O)N2CCN(C)CC2)oc2ccc(Br)cc12	-2	-7	i	-17	-4	-4	-6	-8
Cc1ccc2sc(C)[n+](CCO)c2c1	8	-19	i	-9	5	6	-2	9
Cc1noc(/C=C/N(C)C)c1S(=O)(=O)N1CCCC(C(=O)N2CCc3ccccc32)C1 (stereo not given)	·	1	·	-12	-11	0	·	-2
Cc1c(NC(=S)NC(=O)c2ccccc2Cl)c(=O)n(-c2ccccc2)n1C	-1	-9	i	60	-1	-1	-2	1
FC(F)Oc1ccc(NC(=S)NN2CCOCC2)cc1	-7	-13	i	-10	2	2	0	-52
Nc1nc(SCC(=O)N2CCCCC2)[nH]c(=O)c1NC(=O)c1cccs1	-2	-24	i	3	-3	-1	5	-1
CCC(=O)Nc1cc(C(=O)O)ccc1S(=O)(=O)c1ccc(C)cc1	3	4	i	-5	-1	4	86	·	eIF4H inh retest=0;PABP polyA inh retest=-1
O=C(CCn1c(=O)oc2ccccc21)Nc1ccc(C(=O)O)cc1	-3	-15	i	5	-8	-6	-2	-5
Cc1c(Cl)c(C(=O)N2CCCCCC2)nn1C	3	-1	i	·	1	6	-1	·
CCOC(=O)N1CCN(C(=O)c2ccc3c(c2)ncn3C2CCCC2)CC1	-9	-17	i	3	4	2	-1	-31
O=C(N/N=C/c1ccc(F)cc1)c1ccc(-n2cnnn2)cc1	·	8	·	·	5	3	·	-1
O=C(C1=C[C@H](C2CCCCC2)C[C@H](OCCCCO)O1)N1CCN(Cc2ccc3c(c2)OCO3)CC1	-7	-8	i	13	1	-9	-7	·
COc1cc(/C=N/NC(=O)C2CCN(CC(O)COCc3ccccc3)CC2)ccc1O (stereo not given)	-18	·	i	-46	-1	-2	-1	8
Cc1ccccc1C=O	·	-9	·	-14	0	4	·	·
CCOC(=O)CSc1nnc([C@@H](NC(=O)OC(C)(C)C)C(C)C)o1	-4	-12	i	6	1	3	3	·
COc1cc2c(cc1OC)CN(Cc1ccccc1)CC2	10	-5	i	-8	-2	1	5	-4
COc1cccc(N(C(=O)CS(=O)CC(=O)Nc2ccc(F)cc2)C(C(=O)NC2CCCCC2)c2cccs2)c1 (stereo not given)	1	·	i	-6	2	2	8	0
CCOc1ccc(Cl)cc1-c1cc(C(=O)Nc2ccc(OC)cc2OC)[nH]n1	·	-14	·	·	-4	-10	·	0
CCc1ccc(OCC(=O)NNC(=O)CNC(=O)c2ccc(Br)o2)cc1	·	-10	·	·	5	4	·	-7
O=C(Nc1ccc(N2CCOCC2)cc1)C1CC(=O)N(c2ccccc2)C1 (stereo not given)	-7	-14	i	-7	1	2	-2	-3
COc1ccc(CCNC(=O)CN2C(=O)c3cccc4cccc(c34)C2=O)cc1OC	3	·	i	-5	0	-1	-9	4

Of the compounds above, these contain a Cl atom.
SMILES	PABP polyA inh	UUG fidelity	Rce1 inh	CSC inhib	MT1-MMP act inh	MT1-MMP act inh RFP	eIF4H inh	Env fusion inh	others
S=C1SCCCN1Cc1ccc(Cl)cc1	·	-22	·	·	4	-1	·	-1
Cc1c(NC(=S)NC(=O)c2ccccc2Cl)c(=O)n(-c2ccccc2)n1C	-1	-9	i	60	-1	-1	-2	1
Cc1c(Cl)c(C(=O)N2CCCCCC2)nn1C	3	-1	i	·	1	6	-1	·
CCOc1ccc(Cl)cc1-c1cc(C(=O)Nc2ccc(OC)cc2OC)[nH]n1	·	-14	·	·	-4	-10	·	0

Filtered by structure: the compounds so far with four or more nitrogen atoms.
SMILES	PABP polyA inh	UUG fidelity	Rce1 inh	CSC inhib	MT1-MMP act inh	MT1-MMP act inh RFP	eIF4H inh	Env fusion inh	others
O=C(NCCN1CCN(c2ccccc2F)CC1)C1CC(=O)N(C2CCCC2)C1 (stereo not given)	-20	4	·	-14	0	-3	-14	·
Cc1noc(/C=C/N(C)C)c1S(=O)(=O)N1CCCC(C(=O)N2CCc3ccccc32)C1 (stereo not given)	·	1	·	-12	-11	0	·	-2
Cc1c(NC(=S)NC(=O)c2ccccc2Cl)c(=O)n(-c2ccccc2)n1C	-1	-9	i	60	-1	-1	-2	1
Nc1nc(SCC(=O)N2CCCCC2)[nH]c(=O)c1NC(=O)c1cccs1	-2	-24	i	3	-3	-1	5	-1
CCOC(=O)N1CCN(C(=O)c2ccc3c(c2)ncn3C2CCCC2)CC1	-9	-17	i	3	4	2	-1	-31
O=C(N/N=C/c1ccc(F)cc1)c1ccc(-n2cnnn2)cc1	·	8	·	·	5	3	·	-1

The listing picks up with the 2 entries that preceded the break.
SMILES	PABP polyA inh	UUG fidelity	Rce1 inh	CSC inhib	MT1-MMP act inh	MT1-MMP act inh RFP	eIF4H inh	Env fusion inh	others
O=C(Nc1ccc(N2CCOCC2)cc1)C1CC(=O)N(c2ccccc2)C1 (stereo not given)	-7	-14	i	-7	1	2	-2	-3
COc1ccc(CCNC(=O)CN2C(=O)c3cccc4cccc(c34)C2=O)cc1OC	3	·	i	-5	0	-1	-9	4
CC(=O)C[C@H]1c2cc(F)ccc2S(=O)(=O)N1c1ccc(N(C)C)cc1	·	-8	i	8	4	3	·	-51
Cc1ccc(-c2nc(SCC(=O)Nc3ccccc3OC(F)F)c3c(C)c(C(=O)O)sc3n2)cc1	16	·	i	27	·	·	66	·	eIF4H inh retest=12;PABP polyA inh retest=18
CCN(c1ccccc1C)S(=O)(=O)c1cc2c3c(c1)CCN3C(=O)CC2	·	-15	i	-3	6	0	·	0
Cc1ccc(S(=O)(=O)N2CCCC2CNC(=O)c2ccc(F)c(F)c2)cc1 (stereo not given)	·	-10	i	-17	1	-5	·	27
COC(=O)C(CC(=O)c1ccc(C)cc1)n1nc(C)cc1C (stereo not given)	-5	-4	i	-8	-2	0	0	-59
Cc1ccc(C)c(N2CCN(C(=O)Cc3c(C(=O)O)[nH]c4ccc(Cl)cc34)CC2)c1	2.0*	8	i	1	17	16	?	-9	PABP polyA inh retest=79*
CCOC(=O)C1CCN(c2c(NCCCN(CC)c3ccccc3)c(=O)c2=O)CC1	6	0	i	·	-5	-6	5	11

Random excerpt: 2 records from the list, in no set order.
SMILES	PABP polyA inh	UUG fidelity	Rce1 inh	CSC inhib	MT1-MMP act inh	MT1-MMP act inh RFP	eIF4H inh	Env fusion inh	others
COCCn1c(SCC(=O)N2CCOCC2)nc2c(c1=O)SCC2	-3	-17	i	-4	1	4	-1	-2
FC(F)Oc1ccc(NC(=S)NN2CCOCC2)cc1	-7	-13	i	-10	2	2	0	-52
